Screening data deposited in PubChem by National Center for Advancing Translational Sciences (NCATS).
miR-21 FLuc – miR-21 reporter, rising signal; HeLa miR-21 FLuc reporter, luciferase, 48 h; 340,000 tested, under 10 active; AID 2288; Potency, µM (doses to about 38.3 µM), inactives show at the highest dose reporter change, positive = more light; active = well fitted rising curve with a large enough effect; inconclusive = small, poorly fitted or top-dose-only effect; inactive = no such curve, though single readings can be large or run the other way;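 note: % of control where 0% means no effect; miR-21 action dims this reporter so a rising signal means less miR-21 action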
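HeLa cells endogenously expressing miR-21, stably carrying CMV-driven firefly luciferase with a downstream miR-21 binding site, 2000 cells/well. Titrations up to approximately 40 uM, 48 hours; luciferase luminescence read.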
Rango complex inh – Rango-importin beta binding inhibition; Q14974; Rango CFP/YFP FRET sensor + importin beta, 45 min; Potency, µM (doses to about 92.2 µM), inactives show at the highest dose inhibition of complex formation; 340,000 compounds, 0.031% hits; active = rising FRET ratio curve, often small or poorly fitted; inconclusive = mostly compound fluorescence or quenching in the first reads; inactive = flat curves in all reads;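 note: potency is the fitted concentration of half-maximal effect; 0% = DMSO wells and 100% = buffer wells lacking importin beta; nearly all actives have a fitted effect of over 15% in size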
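FRET biosensor Rango (snurportin 1 IBB between N-terminal EYFP and C-terminal Cerulean), 50 nM in PBS/1 mM DTT/0.02% Tween-20/0.1% BSA, preincubated 5 min RT with compound; 0.125 microM importin beta added, 45 min RT, CFP/YFP FRET ratio read.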
GLA inh pH 4.5 – inhibitors of human alpha-galactosidase A at pH 4.5 | P06280 | purified enzyme, 4-MU-alpha-Gal fluorescence, pH 4.5 | activity change, negative = inhibition, % at 105 µM | 230,000 tested, under 10 active | AID 1467; inconclusive = small, poorly fitted or top-dose-only inhibition, or a rising curve; inactive = flat fitted curve, though single readings scatter; no compound was filed as active;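 note: 0% = full activity with enzyme and -100% = basal without enzyme; dose as in the result columns while the protocol names 77 µM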
Target sequence (P06280 whole entry, looked up): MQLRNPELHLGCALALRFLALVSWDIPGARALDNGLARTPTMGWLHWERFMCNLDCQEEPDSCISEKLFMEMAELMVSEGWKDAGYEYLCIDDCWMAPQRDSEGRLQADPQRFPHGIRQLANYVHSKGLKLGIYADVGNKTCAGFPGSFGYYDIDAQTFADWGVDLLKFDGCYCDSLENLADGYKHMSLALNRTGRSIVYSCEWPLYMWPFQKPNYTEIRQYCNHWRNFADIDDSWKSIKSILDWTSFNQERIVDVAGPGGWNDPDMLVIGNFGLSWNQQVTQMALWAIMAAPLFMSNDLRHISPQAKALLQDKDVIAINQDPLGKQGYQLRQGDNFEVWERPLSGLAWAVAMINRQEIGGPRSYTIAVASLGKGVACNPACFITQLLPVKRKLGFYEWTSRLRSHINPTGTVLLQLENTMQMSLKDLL
Rango release inh – inhibition of RanGTP-driven Rango-importin beta dissociation; 340,000 compounds, 0.071% hits; AID 540253; O95149+P62826; Biochemical FRET Rango-importin beta, RanGTP-induced dissociation; Potency, µM (highest dose often 46.1 µM), for inactives: at the highest dose activity change, negative = inhibition; active means falling FRET ratio curve, often poorly fitted, with flat reads before Ran was added; inconclusive means other falling curves, or compound fluorescence or quenching; inactive means flat or rising ratio curve;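 note: potency is the fitted concentration of half-maximal effect; % of control where 0% means no effect; nearly all actives have a fitted effect of over 45% in size; -100% = wells without RanGTP and RCC1; the record marks most hits as doubtful in a second field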
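FRET read at 45 min, room temperature: inhibitors block the CFP/YFP signal rise when RanGTP (0.6 uM Ran, 2 mM GTP, 0.2 uM RCC1) frees Rango (0.1 uM) from importin beta (0.25 uM). Pre-read after 5 min compound exposure flags interference.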
* marks the source's active call; other numbers are inactive results; ? = inconclusive; · = not tested or not shown.

SMILES	miR-21 FLuc	Rango complex inh	GLA inh pH 4.5	Rango release inh
COc1cc(/C=N/NC(=O)c2cncc(Br)c2)cc([N+](=O)[O-])c1O	-3%	-1.3%	-16	?
CN=C(Nc1cc(C)nn1CCC#N)c1ccccc1F	-3%	-3.0%	-12	5%
COc1ccc(/C(O)=C2/C(=O)C(=O)N(CCCN(C)C)C2c2cccc(Cl)c2)cc1OC (centres undefined)	-6%	0.6%	0	-17%
O=C(CN1CCCN(S(=O)(=O)c2ccc(Br)s2)CC1)Nc1ccc(Cl)cc1	9%	-0.9%	0	-11%
N#CC(C#N)=C(Nc1ccc(F)cc1)SCc1cccc(Br)c1	?	-2.2%	-1	-6%
COc1ccccc1Nc1nnc(SCC2CCCCO2)s1 (centres undefined)	16%	2.3%	-1	-11%
CNC(=O)c1c(NC(=O)c2ccc(N3C(=O)CCC3=O)cc2)sc2c1CCC(C)C2 (centres undefined)	·	1.6%	·	-11%
CCN(C(=O)c1ccccc1)c1ccc([N+](=O)[O-])cc1	-9%	0.5%	-4	7%
CCC(=O)Nc1sc2c(c1C#N)CCC2	-9%	2.2%	8	6%
O=C(CN1CCN(c2ccc(O)cc2)CC1)Nc1cc([N+](=O)[O-])ccc1Cl	-3%	-5.7%	-2	-5%
COc1ccc(OCc2cc(C(=O)NCCc3ccccc3)no2)c(Cl)c1	25%	-0.8%	·	-1%
COc1ccccc1N(C(=O)c1cncc(Br)c1)c1nc(-c2ccc(C)cc2)cs1	-9%	9.4%	6	-4%
c1coc(-c2nnc(NC3=NCCC3)o2)c1	-34%	-3.1%	-7	-10%
COc1cc(OC)c2c(c1)C(=O)c1cc(OC)cc(OC)c1C2=O	-16%	5.5%	5	7%
O=S(=O)(c1ccc2nc(-c3ccccc3)[nH]c2c1)N1CCN(c2cccc(Cl)c2)CC1	-5%	-0.4%	0	3%
CCOC(=O)N1CCN(C(=O)CCS(=O)(=O)c2ccc3c(c2)CCN3C(=O)CC)CC1	-1%	-2.1%	·	-9%
Cc1nc2scc(-c3cccs3)c2c(=O)n1-n1cccc1	-24%	4.6%	-4	1%
COc1ccccc1CNC(=O)C(CCSC)NC(=O)C1CCC(C)CC1 (centres undefined)	0%	0.2%	0	8%
COc1ccc(CCN2C(=NC(=O)C(C)C)SC3CS(=O)(=O)CC32)cc1 (centres undefined)	9%	1.1%	2	-5%
COc1ccc(CNC(=O)C(C)Sc2nc3ccccc3c(=O)n2CC2CCCO2)cc1 (centres undefined)	·	0.4%	·	0%
Cn1c(=O)c2[nH]c(-c3ccc(S(=O)(=O)O)cc3)nc2n(C)c1=O	·	-1.0%	18	-20%
O=C(CSc1nnc(-c2ccc(Cl)cc2)n1Cc1ccco1)c1cccs1	-13%	-4.4%	-8	-3%
O=C(CCC(=O)c1ccc(Cl)cc1)OCc1nc2ccsc2c(=O)[nH]1	·	3.3%	·	-3%
CN1CCN(c2ccccc2NC(=O)c2cccs2)CC1	-5%	-2.3%	·	3%
O=C(Cc1ccccc1)N/N=C/c1cccs1	-17%	0.9%	4	3%

Continued; the last six above are carried over.
SMILES	miR-21 FLuc	Rango complex inh	GLA inh pH 4.5	Rango release inh
COc1ccc(CNC(=O)C(C)Sc2nc3ccccc3c(=O)n2CC2CCCO2)cc1 (centres undefined)	·	0.4%	·	0%
Cn1c(=O)c2[nH]c(-c3ccc(S(=O)(=O)O)cc3)nc2n(C)c1=O	·	-1.0%	18	-20%
O=C(CSc1nnc(-c2ccc(Cl)cc2)n1Cc1ccco1)c1cccs1	-13%	-4.4%	-8	-3%
O=C(CCC(=O)c1ccc(Cl)cc1)OCc1nc2ccsc2c(=O)[nH]1	·	3.3%	·	-3%
CN1CCN(c2ccccc2NC(=O)c2cccs2)CC1	-5%	-2.3%	·	3%
O=C(Cc1ccccc1)N/N=C/c1cccs1	-17%	0.9%	4	3%
CCOc1cc(/C=N/NC(=O)Cn2nc([N+](=O)[O-])cc2C)cc(Br)c1OCc1ccccc1F	0%	-4.1%	3	10%
Cc1ccc(-c2ccc(SCC(=O)NC3CCCC3)nn2)cc1	-1%	3.2%	·	16%
O=C(COc1ccc(Cl)cc1)N(Cc1ccccc1)c1nc(-c2ccccc2)cs1	0%	-5.1%	1	8%
O=C(NC(=O)N1CCCCC1)c1ccccc1	-16%	-0.7%	-5	-12%
COc1ccccc1-c1c(-c2ccc(O)cc2O)n[nH]c1C(F)(F)F	?	4.3%	0	-7%
O=C(O)/C=C/C(=O)c1ccc2c(c1)NC(=O)CO2	0%	-5.6%	6	13%
CC(C)C[C@@H](CN=[N+]=[N-])N1CCN(C)CCC1=O	-4%	-0.8%	·	-9%
O=C(Nc1ccc(O)cc1)C1CCCO1 (centres undefined)	2%	1.5%	-8	17%
COc1ccc(NC2=C(NC(C)=O)C(=O)c3ccccc3C2=O)cc1	11%	-1.5%	·	0%
O=C(O)CCC(=O)Nc1ccc(NC(=O)c2ccc(Cl)cc2Cl)c(Cl)c1	15%	11%	12	-7%
CC(=O)c1ccc(N2CCN(C(=O)COc3ccc(F)cc3)CC2)c(F)c1	-3%	3.3%	1	-1%
CCOc1cc(/C=C2/C(=O)N(c3ccccc3)N=C2C)ccc1OC(=O)c1ccco1	2%	8.8%	-17	-4%
COCCN(Cc1ccco1)C(=O)Cn1ncc2c(=O)oc3ccccc3c21	-1%	-0.7%	-2	0%
CC1CCCN(Cc2nc3c(c(=O)n(C)c(=O)n3C)n2CC(N)=O)C1 (centres undefined)	1%	?	5	-7%
CCCCN(C)c1nc(-c2ccco2)c2c(c1C#N)CC(C)(C)OC2	3%	?	10	?
c1ccc(CN2CCN(c3nc(-c4ccccn4)nc4ccccc34)CC2)cc1	?	1.3%	0	2%
COc1ccc(-c2nsc3c(N4CCN(S(=O)(=O)c5ccccc5F)CC4)ncnc23)cc1	-22%	2.6%	-1	-10%
COC(=O)c1nnn(-c2nonc2N)c1CSc1nc2ccccc2s1	-4%	0.0%	?	2%
COc1ccc(C2C(C#N)=C(N)Oc3cc(O)ccc32)cc1Cl (centres undefined)	8%	?	·	?
CC1CC(C)CN(CC(O)COCc2ccccc2)C1 (centres undefined)	-2%	-1.3%	·	-8%
Cc1cc(NCc2ccco2)nc(N2CCC(C(=O)NC3CCCCC3)CC2)n1	4%	-0.2%	0	-7%
CCCc1ccc2oc(C(=O)N(C)Cc3nccs3)c(C)c2c1	-35%	3.3%	·	-22%
CC(C)(C)NC(=O)Cn1c(=O)oc2cc(S(=O)(=O)N3CCc4ccccc43)ccc21	2%	-4.9%	-8	4%
CC1(c2ccccc2)NC(=O)N(CC(=O)Nc2cc(C(F)(F)F)ccc2N2CCCCC2)C1=O (centres undefined)	·	?	·	-13%
COc1ccc(NC(=O)c2ccco2)c([N+](=O)[O-])c1	-62%	7.2%	-10	4%

(further entries)
SMILES	miR-21 FLuc	Rango complex inh	GLA inh pH 4.5	Rango release inh
Cc1cc(C)n2nc(-c3cnn(C)c3C(F)(F)F)c(Cl)c2n1	-25%	-0.4%	-26	-8%
O=C(CNC(=O)c1ccccc1F)Nc1ccc2c(c1)CCC2	·	-5.8%	·	-19%
C=CCn1c(=O)[nH]c2nc3cc(N=CN(C)C)c(C)cc3nc2c1=O	1%	?	-12	?
Cc1ccc(S(=O)(=O)/N=C2/C=C(C3C(=O)CC(C)(C)CC3=O)C(=O)c3ccccc32)cc1	?	5.3%	-19	-7%
COc1cccc(N(C(=O)c2snc(C(N)=O)c2N)C(C(=O)NCC2CCCO2)c2ccc3ncccc3c2)c1 (centres undefined)	-7%	1.5%	·	2%
Cn1c(SCc2ccc(Br)cc2)nc2c(c1=O)SCC2	0%	-4.0%	5	-8%
N#Cc1ccccc1NC(=O)COC(=O)CSc1nc2ccccc2o1	3%	0.8%	6	0%
Cc1ccc(-c2nc(CN(C)Cc3ccc4nccnc4c3)c(C)o2)s1	-1%	-0.1%	-5	-6%
COc1ccc(Br)cc1CNC(=O)C1CCN(S(=O)(=O)N2CCCCC2)CC1	2%	-1.3%	-6	7%
O=C(CCc1ccccc1)NC(=S)Nc1ccccc1[N+](=O)[O-]	0%	-0.1%	·	6%
Cc1cc(NC(=O)C(C)SCC(=O)Nc2cc(Cl)ccc2N2CCN(C)CC2)no1 (centres undefined)	·	1.2%	·	8%
CN1CCN(c2nc3ccccc3nc2C(C#N)C(=O)OC2CCCCC2)CC1 (centres undefined)	-3%	0.6%	-16	-27%
CCN1CCN(c2nc(N)c([N+](=O)[O-])c(Nc3ccc(C)c(C)c3)n2)CC1	-5%	-0.6%	-3	-6%
O=C(CSc1nnc(-c2ccncc2)n1Cc1ccco1)c1ccc(Cl)cc1	1%	7.4%	-4	8%
CSC1=NCCN1C(=O)c1c(-c2ccccc2Cl)noc1C	-5%	-1.8%	-4	-3%
COCCNC(=O)Cn1cc2c(n1)CCC(C)C2 (centres undefined)	0%	4.5%	-5	-3%
COP(=O)(OC)c1nc(-c2ccccc2)oc1NCc1ccccc1	-13%	2.4%	-2	-1%
COC(=O)c1cc(Br)c(N)cc1OC	-1%	1.8%	5	1%
Cn1c(-c2ccc(F)cc2)cnc1SCC(=O)N1CCCCC1	11%	0.3%	2	-3%
Cc1ccc(OCCCCN2CCCC(C)C2)c([N+](=O)[O-])c1 (centres undefined)	-8%	-4.7%	-2	1%
O=C(CSc1nc2ccccc2o1)N/N=C/c1ccco1	-44%	-3.3%	·	-6%
CC(Sc1cnccn1)C(=O)O (centres undefined)	0%	-1.7%	5	-9%
CC(C)(C)NC(=O)NC(=O)CSc1nnc2ccccn12	-1%	-0.3%	6	7%
CCOC(=O)CSC1=N/C(=C\c2cccnc2)C(=O)N1c1ccc(OC)cc1	-8%	-11%	0	8%
COc1ccc(/C=N/Nc2cc(C)nc(NS(=O)(=O)c3ccc(C)cc3)n2)cc1	-9%	-1.9%	11	-2%

Additional records follow:
SMILES	miR-21 FLuc	Rango complex inh	GLA inh pH 4.5	Rango release inh
O=C(NCC1CCCO1)c1ccc(COc2ccccc2Br)cc1 (centres undefined)	-36%	-1.5%	-8	39%
Cc1cc(C)cc(NS(=O)(=O)c2ccc(-c3cnc(C4CC4)o3)cc2)c1	28%	2.1%	·	-14%
CNS(=O)(=O)c1cccc(C(=O)OCC(=O)c2c(N)n(C)c(=O)n(C)c2=O)c1	-8%	1.1%	0	-9%
NC(=O)NC(=O)CC1S/C(=N/N=C2/NC(=O)CS2)NC1=O (centres undefined)	1%	1.5%	-7	15%
Cc1cc(OCC(=O)N2CCOCC2)ccc1NC(=O)c1ccccc1C	4%	-2.2%	·	-18%
COc1ccc(S(=O)(=O)Cc2ccc(C(=O)NCCc3ccc(S(N)(=O)=O)cc3)o2)cc1	4%	0.2%	-8	-4%
CCn1c(CNC(=O)c2ccccc2F)nnc1SCCOc1ccccc1	-6%	-0.8%	-4	14%
Cc1ccc(S(=O)(=O)CCC(=O)OCC(=O)c2c(N)n(CC(C)C)c(=O)n(C)c2=O)cc1	-3%	-0.5%	·	2%
CC(=O)c1sc(NC(=O)CN2C(=O)C3CC=CCC3C2=O)nc1-c1ccccc1 (centres undefined)	·	4.8%	·	-17%
Cc1cc(OCC(=O)N(C)c2ccccc2)cc2c1C(=O)CC(C)(C)O2	3%	0.4%	-2	1%
Cc1ccccc1CSCCNC(=O)c1ccc(N(C)S(=O)(=O)c2ccccc2)cc1	1%	-0.8%	-2	20%
CC(=O)c1cccc(NC(=O)/C=C/c2ccc([N+](=O)[O-])s2)c1	-8%	?	-2	?
COc1cc(C2Nc3ccc4ccccc4c3C3=C2C(=O)CC(C)(C)C3)ccc1OC(C)C(=O)O (centres undefined)	-5%	?	·	-23%
N#Cc1cc(Sc2ccccn2)c(Sc2ccccn2)cc1C#N	-5%	8.7%	-6	1%
Cn1cc(C(=O)N/N=C/C(Br)=C/c2ccccc2)ccc1=O	11%	-1.9%	1	-17%
Cc1cccc(NC(=S)N(Cc2cccs2)Cc2cc3cc(C)cc(C)c3[nH]c2=O)c1	-4%	-1.2%	5	1%

Individual results from the list.
`O=C(CCc1ccccc1)NC(=S)Nc1ccccc1[N+](=O)[O-]` in miR-21 FLuc = 0%
`CC(C)(C)NC(=O)NC(=O)CSc1nnc2ccccn12` in Rango release inh = 7%

A portion of the library; the hit share may differ from the screen's.
